Screens as filed in PubChem BioAssay.
Measles inh – inhibitors of measles virus growth in infected cells | z-score (no concentration beside the values) | infected Vero cells, GFP fluorescence, 64 h; stronger effect = lower value | hit rate 0.1% among 33,000 | AID 745;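 active = z-score under -3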;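 also: score is relative to mean and SD of the compound wells of a plate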
The depositor's hits bear a star. Only part of the results is shown, so the mix of outcomes need not match the whole.

SMILES | Measles inh
CCc1ccc(NS(=O)(=O)c2ccc3[nH]cc(C(=O)NCc4ccc(C)cc4)c(=O)c3c2)cc1 | 0.64
CC1=C(C(=O)OCCc2ccccc2)C(c2cccc([N+](=O)[O-])c2)C2=C(CC(c3ccccc3)CC2=O)N1 (stereo not drawn) | 0.07
COc1cc(C2C(C(=O)OC(C)C)=C(C)N=C3SCCC(=O)N32)ccc1OCCC(C)C (stereo not drawn) | 0.09
Cn1c(=O)cc(SCC(=O)Nc2cccnc2)c2ccccc21 | 1.46
CCCCN(C)C(=O)c1sc2ncnc(N(C)c3ccccc3)c2c1C | -1.08
Cc1c(C(=O)N2CCN(C)CC2)sc2ncn(Cc3ccccc3F)c(=O)c12 | -0.06
Cc1cccc2c3c4n(c12)CC(O)CN=C4CCC3 (stereo not drawn) | 0.83
CCC1CCc2c(sc(NC(=O)c3c(-c4ccccc4Cl)noc3C)c2C(=O)OC)C1 (stereo not drawn) | 1.79
COc1ccc(NC(=O)CSc2nc3nc(C)c(Cc4cc(C)ccc4C)c(C)n3n2)c(OC)c1 | -0.52
Cc1nc(N2CCCCC2)c2c(C)c(C(=O)O)sc2n1 | 1.66
CCN1C(=O)CC(C(=O)Nc2ccc(F)cc2)SC1=Nc1ccc2c(c1)OCO2 (stereo not drawn) | 2.24
Cc1ccc(N=Cc2cc(Br)ccc2O)c(C(=O)c2ccccc2)c1 | -0.05
CCC(C)NC(=O)Cn1c(=O)n(-c2cc(OC)cc(OC)c2)c(=O)c2ccccc21 (stereo not drawn) | -0.74
Nc1c(-c2ccc(Cl)cc2)nnn1-c1ccc(OC(F)(F)F)cc1 | 0.41
C=CCOc1ccc2nnc(-c3ccc(Br)cc3)n2n1 | -0.3
CC1CCC(NC(=O)c2ccc(CSCc3ccccc3F)o2)CC1 (stereo not drawn) | 1.57
CC1(C)CC(=O)c2cc(C(=O)NC(C)(C)C)c(=O)n(-c3ccccc3)c2C1 | 1.87
COc1ccc(C(=O)N(Cc2ccccc2)c2ccccn2)c(OC)c1 | 1.78
COC(=O)c1ccccc1OCCCn1c(-c2ccc(Br)cc2)nc2ccccc2c1=O | -0.16
COC(=O)CSc1nnc(CNC(=O)c2ccccc2OC)n1C | -1.21
COC(=O)C1=C(C(=O)OC)SC(=CC(=S)c2ccccc2)S1 | -0.96
CCOC(=O)C1CCN(S(=O)(=O)c2cccc3nonc23)CC1 | 0.42
O=C(OCCN1C(=O)c2cccc([N+](=O)[O-])c2C1=O)c1ccc([N+](=O)[O-])cc1 | 0.63
O=C1NCCCC1C(=O)NCCc1c[nH]c2ccccc12 (stereo not drawn) | -0.45
COc1ccc(C2=NC(C(C)C)NC(c3cc(Br)ccc3O)C2)cc1 (stereo not drawn) | 2.59
More records.
SMILES | Measles inh
O=C(Nc1nc2ccc(Cl)cc2s1)c1ccccc1Br | 0.13
Cc1c(C(=O)O)oc2ccc(S(=O)(=O)N(C)C3CCCCC3)cc12 | -0.05
CC(=O)Oc1ccc(C(=O)Nc2nc3ccc4ccccc4c3s2)cc1 | -2.69
Cc1c(C(=O)N2CCN(c3ccc(F)cc3)CC2)sc2ncnc(N3CCC(C)CC3)c12 | -0.61
Cc1nc(N2CCCCC2)c2c(C)c(C(=O)Nc3ccccc3C(F)(F)F)sc2n1 | -0.74
COC(=O)C1=C(C(=O)OC)C(c2ccccc2O)c2sc(=O)[nH]c2S1 (stereo not drawn) | 4.44
O=C(NCCOCc1ccccc1)c1ccccc1Br | 1.33
COc1ccc(C2NC(=O)NC(C)=C2C(=O)Nc2ccccc2Cl)cc1OC (stereo not drawn) | 0.63
Clc1ccccc1-c1nc(N2CCCC2)c2ccccc2n1 | -0.17
Cc1c(C(=O)NC2CCCCC2C)oc2ccc(S(=O)(=O)N3CCCC3)cc12 (stereo not drawn) | 1.23
COc1ccccc1-n1c(SCc2cc(=O)n3cc(Cl)ccc3n2)nc2c(sc(=S)n2-c2ccccc2)c1=O | 0.7
CCc1c(C)sc(NC(=O)C2CC3CCC2C3)c1C(=O)OC (stereo not drawn) | -0.26
O=C(CSc1nnc2scc(-c3ccccc3)n12)Nc1ccc(Cl)cc1 | 0.44
O=C(O)c1ccc(C2Nc3ccc(S(=O)(=O)Nc4ccccc4F)cc3C3C=CCC32)cc1 (stereo not drawn) | -0.39
Cc1ccc2c(c1)C(c1ccccc1)CC(C)N2S(=O)(=O)c1ccccc1 (stereo not drawn) | -0.31
CCOc1ccc(CC(=O)Nc2c(C(C)=O)oc3ccc(Cl)cc23)cc1OCC | 0.53
COC(=O)c1c(NC(=O)CSc2ccccn2)sc2c1CCC2 | -0.59
Cc1ccc(Cl)c(OCCCCN2CCC(C)CC2)c1 | -0.59
O=C(c1cc2c(=O)oc3ccccc3c2s1)N1CCN(c2ccc(F)cc2)CC1 | 0.98
Cc1ccc(-c2nc(NC(=O)Nc3ccc(Cl)cc3)sc2C)cc1 | -1.09
COc1ccc(NC(=O)c2sc3nc(C(F)(F)F)cc(C)c3c2N)cc1OC | 0.28
CC1CC(C)CN(S(=O)(=O)N2CCCC(C(=O)NC3CCCCC3C)C2)C1 (stereo not drawn) | 1.31
CCc1ccccc1NC(=O)Cn1nc(-c2ccc(OC)cc2)ccc1=O | 0.69
Cc1cc(C)n2nc(SCC(=O)NCc3ccc(Cl)cc3)nc2n1 | -1.59
CCN(CC)S(=O)(=O)N1CCC(C(=O)NCc2ccco2)CC1 | -0.75
(cont.)
SMILES | Measles inh
O=C(NCCN1CCCC1)c1cccc(N2CCCC2=O)c1 | 0.23
CC1CCc2sc(NC(=O)COc3ccc(Cl)cc3)c(C(N)=O)c2C1 (stereo not drawn) | 0.85
CCOc1cc2c(cc1OCC)C1C(C(=O)NC3CCCC3)c3ccccc3C(=O)N1CC2 (stereo not drawn) | 0.64
COc1cc(C2C(C(=O)OCC(C)C)=C(C)N=C3SCCC(=O)N32)ccc1OC(C)=O (stereo not drawn) | -0.25
O=C(Nc1ccc(Oc2ccccc2)cc1)c1cn(-c2ccc(Cl)cc2)c(=O)c2ccccc12 | -0.93
Cc1noc(NS(=O)(=O)c2ccc(NC(=O)c3cccc(Br)c3)cc2)c1C | 0.43
CCN(C(=O)c1cc2cc3ccc(OC)cc3nc2o1)c1cccc(C(F)(F)F)c1 | -0.13
Cc1cccc(CN2C(=O)c3ccccc3Sc3ccc(C(=O)NC(C)C)cc32)c1 | 1.27
COc1ccc(N2C(=O)CSC2c2cc3c(cc2[N+](=O)[O-])OCO3)cc1OC (stereo not drawn) | -0.5
O=S(=O)(Nc1ccc(Cl)cc1)c1cnc[nH]1 | -3.51*
Cc1ccnc(NC(=O)C(NC(=O)C2CCC(C)CC2)C(C)C)c1 (stereo not drawn) | 0.1
Cc1ccc2nc(-c3ccc(C)c(NC(=O)c4cccc(Cl)c4)c3)oc2c1 | 0.86
CCc1n(CC(O)COc2cccc(Cl)c2)c2ccccc2[n+]1C (stereo not drawn) | -0.19
O=C(CN1C(=O)c2ccccc2C1=O)NCCN1CCOCC1 | 0.81
O=C(Nc1c(-c2ccc(F)cc2)nc2ccccn12)c1ccccc1 | 0
Cc1nnc(NC(=O)COC(=O)CSc2nc3ccccc3o2)s1 | 1.39
COCCn1cc(C(=O)NCc2ccccc2OC)c2c3ccccc3n(C)c2c1=O | -0.75
CCCCCn1c(=O)[nH]c2cc(C(=O)Nc3ccc(C)c(C)c3)ccc2c1=O | -0.17
O=C(Nc1nc(-c2ccc(F)cc2)cs1)c1cccc([N+](=O)[O-])c1 | -0.49
C=C(C)c1ccccc1NC(=O)Cn1c(=O)sc2ccccc21 | 0.19
CCN(CC)S(=O)(=O)c1ccc(C(=O)Nc2cccc(-c3nc4ccccc4[nH]3)c2)cc1 | 0.7
O=C(O)c1cccc(N2COc3ccc4cc(Br)ccc4c3C2)c1 | -0.81
Cc1ccc(C)c(Oc2coc3cc(OCc4ccc(F)cc4)ccc3c2=O)c1 | -0.12
CCOC(=O)C1CCN(C(=O)Cn2cnc3ccc(S(=O)(=O)N4CCC(C)CC4)cc3c2=O)CC1 | 0.17
COc1ccc(OCCSc2nc3ccccc3n2C)cc1 | -0.22
Carrying on.
SMILES | Measles inh
O=C(Nc1ccccc1F)C1CCN(S(=O)(=O)c2ccc(F)cc2)CC1 | -1.2
COc1ccccc1CN1CCN(C(=O)c2c(OC)cccc2OC)CC1 | -1.28
CCC(C)NC(=O)COc1ccc2c(c1)C(=O)CC1(CCCCC1)O2 (stereo not drawn) | -0.52
CC(C)CC(C(=O)Nc1ccccc1C(F)(F)F)N1C(=O)c2ccccc2C1=O (stereo not drawn) | -0.74
O=S1(=O)c2ccccc2S(=O)(=O)N1Cc1cccc(Cl)c1 | 0.52
CCOc1ccc(-c2nn(-c3ccccc3)cc2C2NC(=O)NC(C)=C2C(=O)OC)cc1C (stereo not drawn) | -0.61
O=C(NCc1cccc(Cl)c1)c1cccn2c(=O)c3ccc(Cl)cc3nc12 | 0.03
O=C(Cc1ccc(F)cc1)N1CCN=C1SCc1ccc(C(F)(F)F)cc1 | 0
CCCCNC(=O)C1CCN(c2nc3cc(Cl)ccc3s2)CC1 | 1.48
COc1ccc(CCNC(=O)c2sc3nc(C)nc(N4CCCCC4)c3c2C)cc1OC | -0.69
O=C(NCCCN1CCCC1)c1cc2cc3ccc(Cl)cc3nc2o1 | -0.82
CCCCOC(=O)C1=C(C)NC(=O)NC1c1ccccc1Cl (stereo not drawn) | -1.13
CC(C)(O)C#Cc1ccc(C(=O)Nc2ccc(OC(F)(F)Cl)cc2)cc1 | -0.57
Nc1cccc(C(=O)CC2(O)C(=O)Nc3ccccc32)c1 (stereo not drawn) | 0.23
CC1=C(C(=O)Nc2ccc(C)cn2)C(c2cccc([N+](=O)[O-])c2)C2=C(CCCC2=O)N1 (stereo not drawn) | 1.2
COc1ccc(C)cc1S(=O)(=O)N1CCN(C(c2ccccc2)c2ccccc2)CC1 | -0.37
COc1cc(NC(=O)CSc2nc3[nH]ncc3c(=O)n2-c2ccccc2)cc(OC)c1 | 0.96
C=CCn1c2ccccc2c2nnc(SCC(=O)N(c3ccccc3)c3ccccc3)nc21 | 0.07
COc1ccc(OCC(=O)Nc2c(C)cc(C)cc2[N+](=O)[O-])cc1 | -0.16
COc1ccccc1N1CCN(C(=O)c2cnn3c(C(F)(F)F)cc(-c4ccc(C)cc4)nc23)CC1 | -1.05
COc1ccc(CCNC(=O)CCc2nc3sc4c(c3c(=O)[nH]2)CCCC4)cc1OC | 0.14
COC(=O)C1=C(C)NC(=O)CC1c1cc(Br)ccc1OC (stereo not drawn) | 0.57
O=C1C=C(Nc2ccc(Cl)cc2)C(=O)N1c1cccc(C(F)(F)F)c1 | 0.55
Cc1cc(C)n2nc(SCC(=O)NC3CCCCC3C)nc2n1 (stereo not drawn) | -0.14
Cc1cc(C)[n+]2c(n1)SC(C)C2 (stereo not drawn) | -0.37

Entries above containing an aryl thioether with sulfur outside any ring:
SMILES | Measles inh
Cn1c(=O)cc(SCC(=O)Nc2cccnc2)c2ccccc21 | 1.46
COc1ccc(NC(=O)CSc2nc3nc(C)c(Cc4cc(C)ccc4C)c(C)n3n2)c(OC)c1 | -0.52
COC(=O)CSc1nnc(CNC(=O)c2ccccc2OC)n1C | -1.21
COc1ccccc1-n1c(SCc2cc(=O)n3cc(Cl)ccc3n2)nc2c(sc(=S)n2-c2ccccc2)c1=O | 0.7
O=C(CSc1nnc2scc(-c3ccccc3)n12)Nc1ccc(Cl)cc1 | 0.44
COC(=O)c1c(NC(=O)CSc2ccccn2)sc2c1CCC2 | -0.59
Cc1cc(C)n2nc(SCC(=O)NCc3ccc(Cl)cc3)nc2n1 | -1.59
Cc1nnc(NC(=O)COC(=O)CSc2nc3ccccc3o2)s1 | 1.39
COc1ccc(OCCSc2nc3ccccc3n2C)cc1 | -0.22
COc1cc(NC(=O)CSc2nc3[nH]ncc3c(=O)n2-c2ccccc2)cc(OC)c1 | 0.96
C=CCn1c2ccccc2c2nnc(SCC(=O)N(c3ccccc3)c3ccccc3)nc21 | 0.07
Cc1cc(C)n2nc(SCC(=O)NC3CCCCC3C)nc2n1 (stereo not drawn) | -0.14

Next compounds
SMILES | Measles inh
CC(C)N1CCc2c(sc(NC(=O)c3ccc(S(=O)(=O)N4CCCCCC4)cc3)c2C(N)=O)C1 | 0.91
CN1C(=O)c2ccccc2C(C(=O)Nc2ccccn2)C1c1cn(C)c2ccccc12 (stereo not drawn) | -0.06
O=C(CSc1nnc2scc(-c3ccc(Cl)cc3)n12)Nc1cccc(C(F)(F)F)c1 | -0.91
Fc1ccccc1C1C2=C(Nc3ncnn31)c1cc(Cl)ccc1OC2c1ccc(Cl)cc1 (stereo not drawn) | -0.35
CC(=O)N1CCc2cc(S(=O)(=O)NCCC(=O)Nc3ccc(Cl)cc3)ccc21 | 1.45
O=C(Nc1cccc(-c2nc3ccccc3s2)c1)c1cccs1 | -0.07
CCN(CCNS(=O)(=O)c1ccc2c(c1)c(=O)n(C)c(=O)n2C)c1ccccc1 | -1.67
O=C(c1nn2c(C(F)(F)F)cc(-c3ccc(F)cc3)nc2c1Cl)N1CCOCC1 | -0.14
COc1ccc(N2CCN(CC(=O)Nc3nc(-c4ccccc4)cs3)CC2)cc1 | 0.42
COCCN1C(=O)c2ccccc2C(C(=O)Nc2cccc(SC)c2)C1c1c[nH]c2ccccc12 (stereo not drawn) | -1.05
Cc1cc(C)cc(Oc2coc3c(CN(C)C)c(O)ccc3c2=O)c1 | -1.22
CC1=C(C(=O)Nc2ccc(C)cc2)C(c2ccc(O)cc2)NC(=S)N1 (stereo not drawn) | 0.48
Cc1ccc(-c2cc3ncc(-c4ccccc4)c(N)n3n2)cc1 | 0.56
Cc1ccc(COc2ccc3c4c(c(=O)oc3c2)CCC4)cc1 | 1.22
CCOc1cc(C2C(C(=O)OC)=C(C)NC3=C2C(=O)CC(c2ccc(OC)cc2)C3)cc(Br)c1O (stereo not drawn) | 0.71
CN(CP(=O)(O)C(O)c1ccccc1)S(C)(=O)=O (stereo not drawn) | 1.26
CCOc1ccc2cc(C(=O)Nc3ccc(C)cc3)c(=O)oc2c1 | 1.08
